VDR inh = Inhibitors of the vitamin D receptor (VDR): qHTS | Vitamin D3 receptor (Homo sapiens), P11473 | VDR-SRC2-3 peptide fluorescence polarization, 2 h | Potency, µM, without a hit: max response, negative = inhibition, actives largely listed as inhibitors | 0.93% of 400,000 active | AID 504847, 2011; active means well fitted inhibition curve with a large enough effect; inconclusive means small, poorly fitted or top-dose-only effect, or another doubt; inactive means no such curve, though single readings can be large or run the other way; further: series mostly up to about 120 µM
Target sequence (P11473 whole entry, looked up): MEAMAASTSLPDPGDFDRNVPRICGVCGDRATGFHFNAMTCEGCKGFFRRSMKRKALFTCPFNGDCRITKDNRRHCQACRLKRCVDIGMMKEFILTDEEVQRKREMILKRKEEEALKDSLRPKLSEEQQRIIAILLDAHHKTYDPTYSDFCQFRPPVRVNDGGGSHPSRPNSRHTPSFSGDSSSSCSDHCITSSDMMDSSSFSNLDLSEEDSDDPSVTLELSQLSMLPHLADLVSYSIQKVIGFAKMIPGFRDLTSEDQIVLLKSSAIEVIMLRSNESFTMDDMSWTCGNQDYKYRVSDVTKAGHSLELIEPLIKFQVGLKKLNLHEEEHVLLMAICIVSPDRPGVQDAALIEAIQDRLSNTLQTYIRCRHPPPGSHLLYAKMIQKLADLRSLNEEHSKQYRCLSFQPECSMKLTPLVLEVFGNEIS
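Fluorescence polarization assay measuring small-molecule disruption of VDR binding to the coregulator peptide SRC2-3. Compounds were pin-transferred (23 nl) into the reagent mix and incubated 2 h at room temperature before reading.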
The depositor's hits bear a star; ? = inconclusive; & = joins results of further samples; ! = a repeat was not active. On the % scale 0 is the no-effect control and ±100 the full control effect; potency means the concentration at half of the fitted maximal effect. Not all compounds are listed (hit frequency here may not be typical).

entry	structure	VDR inh
1	COCCn1c(-c2ccsc2)nc2c1c(=O)[nH]c(=O)n2CC(C)C	9%
2	COCCN(CC(=O)NC1CCCCC1)C(=O)c1csnn1	14%
3	O=C(NC1CCN(Cc2ccccc2)CC1)c1ccc(Cn2c(=S)[nH]c3ccc(N4CCOCC4)cc3c2=O)cc1	-14%
4	CCCn1nc(NS(C)(=O)=O)c2cc3cccc(C)c3nc21	-6%
5	Cc1ccc(C)c(S(=O)(=O)Nc2cccc(-n3cnnn3)c2)c1	-14%
6	CC(NC(=O)c1ccc2c(c1)CCN2S(=O)(=O)c1ccccc1)c1ccccc1 (stereo unspecified)	7%
7	O=C(COc1ccccc1)Nc1nn[nH]n1	20%
8	O=c1[nH]c(C2CCN(S(=O)(=O)c3cccc(C(F)(F)F)c3)CC2)nc2c1nnn2Cc1cccc(F)c1	1%
9	Cc1nn(Cc2c(F)c(F)c(F)c(F)c2F)c(C)c1NC(=O)c1ccc(COc2cc(Cl)ccc2Cl)cc1	5%
10	O=S(=O)(c1ccccc1)N1CCC(c2ccncc2)CC1	13%

The list continues.
entry	structure	VDR inh
11	Cc1ccccc1OCC(=O)NCC(C)NC(=O)COc1ccccc1C (stereo unspecified)	?
12	COc1cccc(C(CC(=O)NCCN2CCOCC2)NS(=O)(=O)c2ccc(C)cc2)c1OC (stereo unspecified)	7%
13	COc1cccc(NC(=O)C2=C(C)C(=O)OC23CCN(C(C)=O)CC3)c1	-7%
14	COc1ccc(/C(O)=C2/C(=O)C(=O)N(CCN(C)C)C2c2cccnc2)cc1OC (stereo unspecified)	-18%
15	CC(=O)OCC1=C(C(=O)O)N2C(=O)[C@@H](NC(=O)Cc3cccs3)[C@H]2SC1	?
16	O=C(CCc1nc2ccccc2c(=O)[nH]1)N1CCN(S(=O)(=O)c2cccc([N+](=O)[O-])c2)CC1	-28%
17	COc1ccc(-n2c(Cn3nnc4ccccc43)n[nH]c2=S)cc1	-15%
18	O=c1c(-c2cccs2)nc2cnc(N3CCNCC3)nc2n1C1CC1	-9%
19	CC(=O)N/C(N)=N/c1nc(=O)c2ccccc2s1	-9%
20	CCCCn1c(SCC(=O)N2CC(=O)Nc3ccccc32)nnc1-c1ccoc1C	-2%

The listing continues.
entry	structure	VDR inh
21	O=[N+]([O-])c1ccc(C(c2sc3nc(-c4ccco4)nn3c2O)N2CCC3(CC2)OCCO3)cc1 (stereo unspecified)	-2%
22	CCN(C[C@H]1N[C@@](C)(C(=O)OC)[C@H]2C(=O)N(C)C(=O)[C@@H]12)S(=O)(=O)c1ccc(F)cc1	3%
23	COc1cccc(Oc2cn[nH]c2-c2ccc(O)cc2O)c1	-5%
24	CC1CCC(NC(=O)CCCn2sc3ccccc3c2=O)CC1 (stereo unspecified)	?
25	COc1cc(OC)c(C(=O)Nc2cccc3ccccc23)cc1OC	-3%
26	Cc1ccc(-c2nn(-c3ccccc3)cc2C(=O)NN2CCN(C)CC2)cc1	-10%
27	CN1CCN(c2ccc(S(=O)(=O)N3CCCCC3)cn2)CC1	9%
28	Cc1coc2c(C)c3oc(=O)c(CCC(=O)N[C@@H](C)C(=O)N[C@@H](Cc4ccccc4)C(=O)O)c(C)c3cc12	-8%
29	Cc1csc(N/N=C/c2c(F)cccc2Cl)n1	-16%
30	CCN(CC)S(=O)(=O)c1ccc(NC(=O)c2ccccc2N(C)S(C)(=O)=O)cc1	-2%

Further results:
entry	structure	VDR inh
31	C[C@@H]1CN([C@@H](C)CO)C(=O)Cc2cc(NC(=O)Nc3ccc(C(F)(F)F)cc3)ccc2O[C@@H]1CN(C)S(=O)(=O)c1ccc(Cl)cc1	-3%
32	COC(=O)c1c(-c2ccc(OC)cc2)sc2cc3c(cc12)OCO3	-6%
33	CCCCc1n(CC(=O)c2ccc(Cl)cc2)c2ccccc2[n+]1C	3%
34	Oc1ccc(C23CC4CC(CC(C4)C2)C3)cc1O	10%
35	COCCCn1c2nc3ccccc3nc2c2c(=O)n(-c3ccccc3OC)cnc21	8%
36	CCCc1cc(=O)n2[nH]c(C)nc2n1	8%
37	Cc1ccc(S(=O)(=O)NCCNC(=O)CN2CCOCC2)cc1	9%
38	CC(=O)Nc1ccc2c(c1Br)Cc1ccccc1-2	-17%
39	N/C(=N\O)c1ccccc1-n1cccc1	19%
40	CCCNC(=O)Cn1c(SCc2ccccc2C)nc2ccncc21	-5%

Pulled one by one from the entries so far (three):
entry	structure	VDR inh
38	CC(=O)Nc1ccc2c(c1Br)Cc1ccccc1-2	-17%
36	CCCc1cc(=O)n2[nH]c(C)nc2n1	8%
31	C[C@@H]1CN([C@@H](C)CO)C(=O)Cc2cc(NC(=O)Nc3ccc(C(F)(F)F)cc3)ccc2O[C@@H]1CN(C)S(=O)(=O)c1ccc(Cl)cc1	-3%

(cont.)
entry	structure	VDR inh
41	O=C(CN1C(=O)CCSc2ccccc21)Nc1ccccc1	14%
42	CCNc1nc(NCC)nc(OCCNS(=O)(=O)c2cc(C)ccc2C)n1	16%
43	CC(C)Oc1ccc(C2NC(=O)NC2=O)cc1 (stereo unspecified)	-10%
44	Cc1ccc(N2CC(NS(=O)(=O)c3cccnc3)CC2=O)cc1C (stereo unspecified)	9%
45	COc1ccc2c(c1)CC[C@@H]1[C@@H]2CC[C@]2(C)C(=O)CC[C@@H]12	-6%
46	Cc1ccc2nc(N3CCC(C(=O)NC4CCCCC4)CC3)sc2c1	-1%
47	CC1=C(C(=O)OC(C)C)C(C)C(C(=O)OC(C)C)=C(C)N1	-4%
48	CCc1ccc(OCC2c3cc(OC)c(OC)cc3CCN2C(C)=O)cc1 (stereo unspecified)	?
49	CCOc1ccccc1NC(=O)CN1CCN(S(=O)(=O)c2ccc(Br)cc2)CC1	-2%
50	COc1ccc(C)cc1N(CC(=O)Nc1ccc(S(=O)(=O)N2CCOCC2)cc1)S(C)(=O)=O	-12%

(further entries)
entry	structure	VDR inh
51	CN(C(=O)CN1CCC(NC(=O)C2CCCCC2)CC1)C1CCCCC1	11%
52	COc1cc(/C=N/NC(=O)CN2CCOCC2)ccc1OCc1ccccc1	-13%
53	Cc1cc(C)cc(NC(=O)C2CCN(S(=O)(=O)c3cn(C)cn3)CC2)c1	3%
54	Cc1ccc(S(=O)(=O)N2CCOCC2)cc1NC(=O)COC(=O)CNC(=O)c1ccccc1	1%
55	COc1ccc(C2C(=O)N(C3CCC(C)CC3)CC(=O)N2Cc2ccccc2Cl)cc1OC (stereo unspecified)	8%
56	CCOC(=O)N1CCN(C(=O)COc2cccc3c2CCN(Cc2ccc(F)cc2)C3=O)CC1	-1%
57	COc1ccc(CC(=O)NNC(=O)c2cc(C)[nH]n2)cc1	11%
58	c1ccc2c(Nc3nc4c(s3)CCCC4)cccc2c1	-4%
59	COc1ccc(C(CNC(=O)CSc2ccccc2C)N(C)C)cc1 (stereo unspecified)	9%
60	O=C(Cc1ccccc1)Nc1sc2c(c1C(=O)Nc1ccc(Br)cc1)CCCC2	-27%

Later entries
entry	structure	VDR inh
61	CC(C)C1=C2CCCCC2NC(=O)N1 (stereo unspecified)	-6%
62	CN1CCN(NC(=S)Nc2ccccc2)CC1	-12%
63	COc1ccccc1P(=O)(Cc1ccccc1)c1ccccc1 (stereo unspecified)	5%
64	CCOc1ccc(-c2nc(CCl)cs2)cc1	-1%
65	Cc1ccc(NC(=S)N(CCN2CCCCC2)Cc2ccco2)cc1C	18%
66	Fc1cccc(-c2cc3nc4c(c(N5CCOCC5)n3n2)CCCC4)c1	-10%
67	Cc1cccc(NC(=O)Cn2c(=O)n(CC3CCCO3)c(=O)c3ccccc32)c1 (stereo unspecified)	2%
68	CC(=O)c1ccc(Oc2cc(C(F)(F)F)cnc2C(N)=O)cc1	-1%
69	O=[N+]([O-])c1ccccc1S(=O)(=O)N1CCCC(C(F)(F)F)C1 (stereo unspecified)	-11%
70	Cc1ccc2nc(N3CCN(c4cccc(Cl)c4)CC3)c3nnnn3c2c1	2%

Values by screen from above.
Compounds 39 to 49 in VDR inh, in turn: 19%, -5%, 14%, 16%, -10%, 9%, -6%, -1%, -4%, ?, -2%

(listing goes on)
entry	structure	VDR inh
71	Cc1cccc(NC(=O)c2cc(S(=O)(=O)c3ccccc3)ccc2Cl)c1	-1%
72	O=C(CCNC(=O)c1ccccc1Cl)NN=Cc1ccco1	-12%
73	Cc1ccccc1-n1c(Cn2c(=O)sc3ccccc32)nnc1SCC(=O)Nc1nccs1	-6%
74	O[C@@H]1[C@@H](O)C=C2CCN3Cc4cc5c(cc4[C@H]1C23)OCO5 (stereo partly specified)	-24%
75	COc1cc(-c2nc3cnccn3c2Nc2c(C)cccc2C)ccc1O	-5%
76	COc1ccc(NC(=O)CCN2C(=O)c3ccccc3C2=O)cc1	-21%
77	CCc1nn(CCCC(=O)NCc2ccccc2Br)c(=O)c2cc3occc3n12	2%&-15%
78	c1ccc(Cn2nnnc2C(c2cccs2)N2CCCCCC2)cc1 (stereo unspecified)	-23%
79	Cc1onc(-c2ccccc2)c1C(=O)NCc1ccco1	-12%
80	COCCn1c(SCC#N)nnc1-c1ccc([N+](=O)[O-])cc1	-23%

A few values from the entries so far.
Under VDR inh, COc1ccc(NC(=O)CCN2C(=O)c3ccccc3C2=O)cc1 reads -21%
Under VDR inh, CCc1nn(CCCC(=O)NCc2ccccc2Br)c(=O)c2cc3occc3n12 reads 2%&-15%

(cont.)
entry	structure	VDR inh
81	CC(=O)c1cccc(S(=O)(=O)NCC2CCCCC2)c1	-14%
82	Cc1cccc(OCC(=O)Nc2ccc(NC(=O)c3ccccc3)cc2)c1	-6%
83	CN1C(=O)CC(NNC(=O)c2ccc(Cl)cc2)C1=O (stereo unspecified)	-15%
84	Cc1oc(C(C)(C)C)cc1C(=O)Nc1ccc(N2CCOCC2)cc1	-8%
85	COc1cccc([C@@H]2Oc3ccc(Br)cc3C(=O)[C@H]2OC(=O)NCCc2ccc(OC)c(OC)c2)c1	-8%
86	COc1ccc(OCC(=O)OCc2cc(=O)n3nc(C4CC4)sc3n2)cc1	-2%
87	CC(C)C(=O)Nc1nnn(C)n1	0%
88	COc1ccc(NC(=O)COc2cccc3c2OC(C)(C)C3)c(OC)c1	-8%
89	O=C(Nc1ccccc1N1CCCCC1)c1ccc(F)cc1	-5%
90	CCOC(=O)C1ON2CCCCC2C1(O)C(F)(F)F (stereo unspecified)	4%

Additional compounds follow.
entry	structure	VDR inh
91	O=c1oc2cc(O)ccc2s1	28µM*!
92	COc1ccccc1NC(=O)COC(=O)Cc1c[nH]c2ccccc12	2%
93	NC(=O)COc1ccccc1C(=O)O	2%
94	CN(C1CCCCC1)S(=O)(=O)c1ccc(S(=O)(=O)N2CCCC2)cc1	9%
95	CCOc1ccc2c(c1)sc1nc(C(=O)OC)cc(=O)n12	6%
96	CC(C)(C)c1ccc(C(=O)Nc2ccc(Oc3cccnc3)nc2)cc1	-18%
97	CNC(=O)c1ccc(Nc2nnc(-c3ccc(C)c(S(=O)(=O)NCC4CCCO4)c3)c3ccccc23)cc1 (stereo unspecified)	-10%
98	CN1CCN(c2ccc(Cl)cc2NC(=O)c2cc(=O)[nH]c3ccccc23)CC1	15%
99	CN1CCN(C(=O)c2cc3c(ccc4ccccc43)oc2=O)CC1	16%
100	COc1ccccc1-c1nnc(SCC(=O)Nc2ccc(N3CCOCC3)cc2)n1N	-9%

Additional records follow:
entry	structure	VDR inh
101	O=C(C1CCC(=O)N(C2CC2)C1)N1CCC(Oc2cccc(C(F)(F)F)c2)CC1 (stereo unspecified)	-9%
102	O=C(Cc1c(F)cccc1Cl)NCC1CCCO1 (stereo unspecified)	-5%
103	CC(=O)c1ccc(OCc2cc(C(=O)NC(C)c3cnn(C)c3)no2)cc1 (stereo unspecified)	4%
104	CCOCC(=O)NCc1ccc2c(c1)cc(C)n2C	-7%
105	NC1=C(c2ccc([N+](=O)[O-])cc2)C(=O)CO1	1%
106	CCCCC/C=C\C/C=C\C/C=C\C/C=C\CCCCCC(=O)NCC(=O)O	-2%
107	Clc1cnc2nc(SC/C=C/c3ccccc3)[nH]c2c1	-5%
108	CN1CCCN(S(=O)(=O)c2ccccc2)CC1	-5%
109	Cc1cc(OCC(=O)NCC2CCC(C(=O)O)CC2)c2c(C)cc(=O)oc2c1 (stereo unspecified)	-2%
110	COc1ccc(N2CCN(c3nc(Nc4ccc(C)c(F)c4)nc(N4CCCC4)n3)CC2)cc1	-14%

Later entries:
entry	structure	VDR inh
111	Cn1cc([N+](=O)[O-])c(C(=O)Nc2nc(-c3ccc(Cl)cc3)cs2)n1	2%
112	CCCCCCCCNC(=S)NCCN1CCCCC1	-7%
113	O=S(=O)(c1ccccc1)N(CC1CO1)c1ccccc1 (stereo unspecified)	6%
114	O=C(Cn1cnc2c(cnn2-c2ccc(F)cc2)c1=O)OCc1ccccc1	13%
115	O=C(C1CCC1)N(CCc1ccccc1)Cc1nc2ccccc2c(=O)[nH]1	0%
116	COc1ccc([C@@H]2CC=C(C(=O)O)[C@H](c3ccc(C)cc3)N2S(=O)(=O)c2ccc(C)cc2)cc1OC	12%
117	COc1cc2c(cc1OC)CN(c1ccc(F)cc1[N+](=O)[O-])CC2	?
118	COc1ccc(OC)c(NC(=O)N2CCC(CN3CCCCC3)CC2)c1	19%
119	COc1cccc(C2Nc3ccccc3-c3nnc(SCc4ccccc4)nc3O2)c1OC (stereo unspecified)	-11%
120	Cc1cc(C)cc(NC(=O)N2CCCC2C(=O)NCc2ccco2)c1 (stereo unspecified)	-3%

(more compounds)
entry	structure	VDR inh
121	CCn1c2ccccc2c2cc(NC(=O)COC(=O)c3cc(OC)c(OC)cc3OC)ccc21	-9%
122	CSc1ccc(CCNc2ncnc3onc(-c4ccc(Cl)cc4)c23)cc1	2%
123	CN1C(=O)N(C)C2(c3ccccc3)NC(=O)NC12c1ccccc1 (stereo unspecified)	17%
124	O=C(Cn1nnc(-c2ccc(S(=O)(=O)N3CCCC3)cc2)n1)Nc1ccccc1-n1cccc1	13%

Bioassay records deposited in PubChem by National Center for Advancing Translational Sciences (NCATS).
